Assay outcomes as filed in PubChem.
KCNQ2 enhance: KCNQ2 (rat) channel potentiation; O88943; CHO-K1 KCNQ2, FluxOR thallium flux fluorescence; active compounds read high; B-score at 10 µM; 310,000 compounds, 0.54% hits;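 active = fluorescence ratio B-score at least 3 SD of library B-scores, with initial fluorescence B-score within 3 SD, cut at about 5.3 in these data; same plate scores as AID 2156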;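 also: B-score of peak minus minimum over baseline fluorescence ratio after K+ and Tl+ stimulus; positive B-score means potentiation of KCNQ2 with more thallium influx and brighter signal; only the inactives scoring about 0 or higher are listed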
Target sequence (O88943 whole entry, looked up): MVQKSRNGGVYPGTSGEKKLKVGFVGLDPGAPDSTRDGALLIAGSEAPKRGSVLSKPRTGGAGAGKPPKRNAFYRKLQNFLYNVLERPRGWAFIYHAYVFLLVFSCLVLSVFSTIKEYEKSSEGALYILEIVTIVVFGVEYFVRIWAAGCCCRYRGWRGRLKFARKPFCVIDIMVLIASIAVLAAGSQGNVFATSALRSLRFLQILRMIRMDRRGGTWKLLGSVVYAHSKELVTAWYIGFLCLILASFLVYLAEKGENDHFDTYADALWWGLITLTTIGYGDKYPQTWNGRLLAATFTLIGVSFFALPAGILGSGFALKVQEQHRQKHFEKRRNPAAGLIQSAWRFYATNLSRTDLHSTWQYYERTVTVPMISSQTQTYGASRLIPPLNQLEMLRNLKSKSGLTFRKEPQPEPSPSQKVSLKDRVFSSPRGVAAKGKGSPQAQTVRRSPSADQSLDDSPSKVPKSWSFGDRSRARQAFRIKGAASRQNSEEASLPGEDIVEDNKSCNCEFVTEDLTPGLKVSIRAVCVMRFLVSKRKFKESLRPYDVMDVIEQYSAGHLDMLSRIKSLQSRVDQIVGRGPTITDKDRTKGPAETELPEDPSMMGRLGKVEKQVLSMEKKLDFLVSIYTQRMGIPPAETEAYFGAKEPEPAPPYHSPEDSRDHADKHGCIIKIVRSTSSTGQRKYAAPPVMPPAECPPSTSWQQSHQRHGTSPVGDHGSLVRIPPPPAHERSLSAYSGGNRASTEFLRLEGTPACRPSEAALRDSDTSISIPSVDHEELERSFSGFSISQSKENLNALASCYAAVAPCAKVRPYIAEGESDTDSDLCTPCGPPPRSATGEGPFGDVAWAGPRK
KCNQ2 enhance baseline: recorded beside KCNQ2 enhance, whose call it bears; B-score; compound at 10 µM; measured here: initial fluorescence intensity artifact check;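 brightness before thallium and not channel activity; 0 = typical well and far values either way flag optical interference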
* hit, by the source's call. This is a subset; the hit share may differ from the screen's.

nr	Compound	KCNQ2 enhance baseline	KCNQ2 enhance
1	CCC(=O)N1CCc2cc(S(=O)(=O)NCCC(=O)N3CCN(c4ccccc4)CC3)ccc21	0.25	0.87
2	Cc1ccc(Cn2c(C(=O)O)cc3sccc32)cc1	-1.4	0.39
3	COCC(=O)n1nc(NCc2ccc(OC)cc2)nc1NCc1ccc(OC)cc1	2.2	0.27
4	Cc1cc(C)c2cc(C(O)c3nnnn3Cc3ccccc3)c(=O)[nH]c2c1 (stereo not given)	1	0.3
5	O=C(NC(=S)N1CCCCCC1)c1ccc(Cl)cc1Cl	-0.62*	9.1*
6	O=C(CSc1ncccn1)N1CCN(S(=O)(=O)c2ccccc2)CC1	-3.7	0.2
7	Cc1ccc(CNC(=O)c2ccc(CNS(=O)(=O)c3ccc4c(c3)C(C)(C)C(=O)N4C)cc2)o1	1.8	0.62
8	CN(C)C(=C(C#N)C#N)N1CCN(c2ccc(Cl)c(Cl)c2)CC1	-2.2	0.29
9	O=C(CCSc1ccc(Cl)cc1)Nc1cccnc1	0.13	1.9
10	CCOc1ccc(Oc2ccccc2NC(=O)CN2C(=O)NC3(CCCC3)C2=O)cc1	0.03*	5.9*
11	Cc1ccc(NS(=O)(=O)c2ccc3c(c2)n(C)c(=O)n3C)c(C)c1	-0.73	0.42
12	CCOC(=O)CSc1nnc(NC(=O)c2cccc([N+](=O)[O-])c2)s1	2.4	1.1
13	CC1Cc2cc(S(=O)(=O)N3CCC(C(=O)NCc4ccco4)CC3)ccc2N1C(=O)C1CCC1 (stereo not given)	-0.52	0.66
14	Cc1ccc(NC(=O)c2cc([N+](=O)[O-])ccc2N2CCOCC2)cc1S(=O)(=O)N1CCOCC1	-1.4	1.2
15	O=C(O)C1C2C=CC(O2)C1C(=O)Nc1ccccc1C(F)(F)F (stereo not given)	-0.52	0.42
16	C=CCSc1nnc(-c2ccccc2NC(=O)CC)c(=O)[nH]1	0.58	1.2
17	O=C(NCc1cccs1)c1ccc2ccccc2n1	-1.1	0.34
18	CCCOc1ccc(C(=O)N/N=C/c2c[nH]c3ccc(Br)cc23)cc1	-0.01	0.13
19	Cn1cnnc1SCc1nnc(-c2ccccc2Br)o1	-0.41	0.16
20	CC(O)CNc1nc2c(c(=O)n(C)c(=O)n2C)n1CCc1ccccc1 (stereo not given)	-0.12	0.45
21	CC(C)Cc1ccccc1O	1.2	0.73
22	O=C(O)CN1C(=O)/C(=C\c2cccc(OCc3ccc(Cl)cc3)c2)SC1=S	-1.8	2
23	N#Cc1c(N2CCCCC2)nc(N)c2c(N)nc(SCC(=O)O)cc12	-0.03	1.3
24	CN(c1ccccc1C(=O)Nc1ccc(S(=O)(=O)N2CCCC2)cc1)S(C)(=O)=O	0.02	0.69
25	O=C(NC1CC1)C1CC(=O)N(c2ccccc2)C1 (stereo not given)	-0.5	1.9
26	O=C(O)c1ccc(NC(=O)c2ccc3c(c2)C(=O)N(c2ccccc2)C3=O)cc1	0.75	0.09
27	COc1ccccc1CNC(=O)CSc1nnc2c(n1)[nH]c1ccc(F)cc12	-0.65	0.24
28	O=C(COC(=O)c1ccc(S(=O)(=O)N2CCOCC2)cc1)NC1CCCCCC1	0	0.78
29	COC(=O)CNC(=O)Cc1c(F)cccc1Cl	-0.12	0.05
30	COC(=O)c1nnn(-c2nc(N3CCOCC3)nc(N3CCOCC3)n2)c1C	1.4	0.55
31	Cc1noc(/C=C/NCc2cccnc2)c1S(=O)(=O)N(C)CC(=O)N1CCc2ccccc21	0.12	0.96
32	COc1ccc(-c2csc3nc(-c4ccccc4OC)oc(=O)c23)cc1	0.49	0.06
33	CCC(=O)Nc1ccc(/C(C)=N\NC(=O)c2ccc(C)s2)cc1	0.9	2.3
34	COCCCNCC(=O)Nc1ccc(OC(F)(F)F)cc1	-1.7	1.2
35	O=C(Nc1nc(-c2cccc([N+](=O)[O-])c2)cs1)c1cccc([N+](=O)[O-])c1C(=O)O	0.34	0.87
36	O=S(=O)(c1cccs1)N1CCC(CO)(Cc2cccc(F)c2)CC1	0.07	0.79
37	COc1ccc(-c2ncc3ccccn23)cc1OC	-0.34	0.66
38	COc1ccc(-c2nnc(SCC(=O)N3CCC(Cc4ccccc4)CC3)o2)cc1OC	-0.12	0.26
39	Cc1nc(NC(=O)c2cc3c(C)nn(-c4ccccc4)c3s2)sc1C(=O)Nc1ccccc1	1.1	0.5
40	CCOc1ccccc1N1CCN(C(=S)NC(=O)C23CC4CC(CC(C4)C2)C3)CC1	-0.46	0.31
41	O=S(=O)(c1ccc(-n2cnnn2)cc1)N1CCN(c2ccccc2F)CC1	2.3	0.79
42	Cc1ccc(NC(=S)N2CCC(NC(=O)c3ccccc3)CC2)cc1	3.2	0.22
43	Fc1ccc(-c2cnn3c(-c4ccncc4)ccnc23)cc1	0.01	0.26
44	CCc1ccc(CNCc2cccs2)cc1	-2.1	2.1
45	O=C(C1CC=CCC1)N1CCN(C(=O)C2CC=CCC2)CC1 (stereo not given)	-0.11	0.75
46	COc1ccccc1N1CCN(C(=S)Nc2ccc(F)cc2)CC1	-0.15	1.3
47	Cn1c(=O)c(-c2cc(=O)[nH][nH]2)c(O)c2ccccc21	0.22	0.63
48	COc1ccc(CCNS(=O)(=O)c2cccc(F)c2)cc1OC	-1.9	0.2
49	COC(=O)Oc1nsnc1N1CCOCC1	-0.02	0.63
50	Cc1ccc(NC(=O)C2=CC(c3ccc(C)cc3)=NS(=O)(=O)N2C)cc1	1.9	1.2
51	CCN(CC)S(=O)(=O)c1ccc(N2CCOCC2)c(NC(=O)c2cccc3c(=O)c(C)c(-c4ccccc4)oc23)c1	-0.94	0.52
52	FC(F)(F)c1cc(-c2ccccc2)nc2nc(N3CCOCC3)sc12	0.21	0.68
53	COc1ccc(C(NC=O)c2cc(OC)c(OC)cc2Br)cc1OC (stereo not given)	-0.54	0.65
54	O=C1CC(C(=O)O)S/C(=N\NC(=O)c2ccccc2)N1 (stereo not given)	0.64	0.35
55	C=CCn1c(SCc2ccccc2)nc(O)cc1=O	-0.5	0.62
56	COc1ccc(C2CC(c3cccs3)n3nc(N)nc3N2)cc1 (stereo not given)	1.6	0.49
57	CSc1nnc(NC(=O)c2nc(S(=O)(=O)Cc3cccc(C)c3)ncc2Cl)s1	-1.7*	13*
58	COc1ccc(C(=O)NCC(=O)N/N=C/c2cn[nH]c2-c2ccccc2)cc1	0.77	0.98
59	CCOc1ccccc1NC(=O)CCC(=O)Nc1nnc(C2CCCCC2)s1	-0.25	2.3
60	O=S(=O)(NCCNc1ncc(C(F)(F)F)cc1Cl)C(F)(F)F	-0.04	1.1

More results:
nr	Compound	KCNQ2 enhance baseline	KCNQ2 enhance
61	O=C(Nc1ccc(Cl)c(S(=O)(=O)N2CCOCC2)c1)c1cc(-c2ccccn2)nc2ccccc12	0.09	1
62	NC(=O)Nc1ccccc1C(=O)N1CCC(O)(c2ccc(Cl)cc2)CC1	2.5	0.18
63	C/C=C(\C)C(=O)NCCN1C2=NC[C@H](Cc3ccccc3)N2C[C@@H]1Cc1ccc(OC)cc1	4.2	0.09
64	CC(=O)N1CCC(N(C(=O)Nc2ccc(Cl)cc2)C(C)C)CC1	-0.41	2.9
65	CC1CCCCC12NC(=O)N(CC(=O)NC(=O)NCc1ccco1)C2=O (stereo not given)	-1.5	0.32
66	COc1ccc(CN2[C@@H](CC(=O)O)c3ccc(C(F)(F)F)cc3S2(=O)=O)cc1	0.09	0.88
67	CCCCN(C(=O)CCC(=O)Nc1cc(C)on1)C(C(=O)NC1CCCC1)c1cccc(OC)c1 (stereo not given)	-0.56	0.04
68	Cc1cc(-c2nnc(CCC(=O)NC(Cc3ccccc3)c3ccccc3)o2)no1 (stereo not given)	0.09	0.28
69	CCc1ccccc1-n1c(SCC(=O)NC)nnc1-c1cccnc1	1.3	1.8
70	Cc1c(Cl)cccc1NC(=O)Cc1cccs1	-0.26	4.5
71	Cc1ccccc1NC(=O)/C=C/c1cccs1	-0.28	0.5
72	COc1ccc(C(=O)NN2CCOCC2)cc1[N+](=O)[O-]	0.29	0.13
73	COc1ccc(CNC(=O)CSc2ccsc2[N+](=O)[O-])cc1	0.03	0.64
74	COc1ccc(Cl)cc1NC(=O)CN(C)C(=O)c1ccc(C)s1	0.01	1.2
75	CN(C)CCCNC(=O)c1ccc(-c2ccccc2)cc1	0.75	2

Record cards, from the list above. Order of screens: KCNQ2 enhance baseline	KCNQ2 enhance
O=C(Nc1ccc(Cl)c(S(=O)(=O)N2CCOCC2)c1)c1cc(-c2ccccn2)nc2ccccc12 as listed: 0.09	1
Cc1ccccc1NC(=O)/C=C/c1cccs1 as listed: -0.28	0.5
Cc1cc(-c2nnc(CCC(=O)NC(Cc3ccccc3)c3ccccc3)o2)no1 (stereo not given) as listed: 0.09	0.28
COc1ccc(CNC(=O)CSc2ccsc2[N+](=O)[O-])cc1 as listed: 0.03	0.64
COc1ccc(Cl)cc1NC(=O)CN(C)C(=O)c1ccc(C)s1 as listed: 0.01	1.2

Following part:
nr	Compound	KCNQ2 enhance baseline	KCNQ2 enhance
76	CC(=O)Nc1ccc(-c2nnc(SCC(=O)n3c4c(c5ccccc53)CCCC4)n2C)cc1	0.09	0.26
77	C=CCn1c(N2CCN(c3ccc(OC)cc3)CC2)nc2c1c(=O)[nH]c(=O)n2C	0.63	1.4
78	CCCC(=O)Nc1sc2c(c1C(=O)Nc1ccccn1)CCCC2	0.66	0.07
79	O/N=C/c1cc(Br)ccc1OCc1ccc(F)cc1	1.8	1.5
80	CCOc1ccccc1C(=O)Nc1ccc2nc3n(c(=O)c2c1)CCCCC3	1.6	0.6
81	Cc1ccccc1-n1nc(-c2cccnc2)cc1C(=O)NN	1.2	1.5
82	CC(Sc1nnc(CC(=O)Nc2ccccc2F)n1C)C(=O)Nc1nccs1 (stereo not given)	-0.26	0.35
83	CCn1ccnc1C(O)c1ccccc1OC (stereo not given)	-0.01	0.29
84	CCOC(=O)N1CCN(C(=O)C(=O)NNC(=O)COc2ccc(Cl)c(C)c2)CC1	-1.4	1.6
85	O=C(CN1CCN(c2ccccn2)CC1)Nc1ccccc1C(=O)Nc1ccccc1	0.01	0.5
86	CCc1ccccc1NC(=O)NNC(=O)c1ccc2ccccc2c1O	-1	0.21
87	Cc1ccccc1NC(=S)NC(=O)c1cc(-c2ccccc2)nc2ccccc12	-0.26*	6.2*
88	COc1ccc(-n2c(SCC(=O)NCC3CCCO3)nc3c(c2=O)SCC3)cc1OC (stereo not given)	-1.1	1.9
89	Cc1c(C)c2ccc(OCC(=O)NC(Cc3ccc(Cl)cc3)C(=O)O)cc2oc1=O (stereo not given)	0.4	0.58
90	CC(=O)c1ccc(NS(=O)(=O)c2ccccc2)cc1	-0.8	0.52
91	Cc1ccc(NC(=O)c2ccccc2)s1	0	2.2
92	CCN1CCCC1CNC(=O)C1CCCN(S(=O)(=O)c2cccc3nsnc23)C1 (stereo not given)	-0.2	0.4
93	C/C(=N\NC(=O)c1cccc(S(=O)(=O)N2CCCC2)c1)c1ccc(OCC(=O)N(C)C)cc1	0.02	1.4
94	COc1cc(/C=N/NC(=O)c2cccnc2)ccc1OC(=O)c1cccc(Br)c1	1.4	0.25
95	O=C(O)Cc1ccc(O)c(F)c1	-0.02	0.3
96	C[C@@H]1C=C(C(=O)N2CCOCC2)O[C@H](OCc2ccc(CO)cc2)C1	0.48	0.08
97	Cc1ccc(-c2nn(-c3ccccc3)cc2/C=N/NC(=O)c2ccncc2)o1	-2.9	2.7
98	O=[N+]([O-])c1cccc(S(=O)(=O)[N-]c2nc3ccccc3nc2-n2cc[n+](Cc3ccccc3)c2)c1	1.6	1.1
99	CCOCCCNC(=O)CN1C(=O)CSc2cc(S(=O)(=O)N3CCCCCC3)ccc21	-1.9	0.98
100	Cc1ccc(SCC(=O)Nc2ccc(N3CCN(C)CC3)c(F)c2)c(C)c1	0.32	1
101	Cc1cccc(N=C2NN=C(c3c(C)[nH]c4ccccc34)CS2)c1	0.31	0.08
102	CC(NC(=O)Cc1ccc(F)cc1)C(c1cccs1)N1CCN(C)CC1 (stereo not given)	-0.87	1.2
103	O=c1[nH]c(COc2ccc(Cl)cc2Br)nc2ccccc12	-1.5	1.1
104	N/C(=C/C(=O)c1ccccc1O)C(F)(F)F	-0.26	0.31
105	CCOC(=O)N1CCC(N2C(=O)c3ccc(C(=O)NCCOC)cc3C2=O)CC1	0.69	0.43
106	Cc1c(Cl)cccc1NC(=O)CCCN1C(=O)c2cccnc2C1=O	-0.07	0.95
107	N#C/C(=N\Nc1cccc(F)c1)C(=O)C1CC1	-1.2	2.3
108	CC(=O)Nc1c(-c2ccccc2)c2cc(Br)ccc2[nH]c1=O	-0.67	0.72
109	CCn1ccnc1CN(C)Cc1nc(CCC(C)C)no1	-0.72	1
110	c1sc2[n+](c1C13CC4CC(CC(C4)C1)C3)CCS2	-0.59	0.43
111	Cc1ccccc1C(=O)NC1CCN(CC(=O)Nc2ccc3c(c2)OCCO3)CC1	0.21	0.04
112	C/C(=N/OCC(=O)Nc1ccccc1)c1cccs1	-0.97	0.12
113	O=C(Cn1cnnn1)Nc1ccccc1Cc1ccccc1	1.6	0.69
114	Cc1ccc(S(=O)(=O)Nc2ccc(C(=O)NCCCN3CCOCC3)cc2)cc1[N+](=O)[O-]	0.11	0.31
115	NS(=O)(=O)c1ccccc1	-1.1	0.34
116	CSc1nc(C)c2cc(C)oc2n1	-1	1.3
117	Cc1ccccc1C(=O)Nc1nnc(SCC(=O)NCc2ccco2)s1	0.06	1.5
118	CN(C)C(=S)Nc1ccc(S(=O)(=O)N2CCCCC2)cc1	0.02	2
119	CCCC[C@@H]1CNC(=S)N1CC1CCCCC1	0.15	0.01
